Source: PubChem
CtBP-E1A blk – qHTS Assay for Inhibitors of the CtBP/E1A Interaction; CtBP / adenovirus E1A interaction (AlphaScreen); AlphaScreen GST-E1A/His-CtBP binding, 1536-well; active compounds read low; control for the full effect not named in the record; activity change, % (concentration not given with the values); 340,000 tested, 0.49% active; in the data active means activity change below about -65%; inconclusive means about -30% to -65%; inactive means above about -30%; further: on the % scale 0 is the no-effect control and ±100 the full control effect
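Steps: dispense buffer (Tris pH 8.0, NaCl 300 mM, TCEP 1 mM, BSA, Tween 20); add 5X protein mix (GST-E1A, His-CtBP, 125 nM each); pin 23 nL compound; 2 h at 37 °C, dark; add 5X beads (50 ug/mL); 1 h; read.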
TRPML1 ag – qHTS for Agonists of the Human Mucolipin Transient Receptor Potential 1 (TRPML1); Mucolipin-1 (Homo sapiens), Q9GZU1; TRPML1-expressing cells, Ca2+ dye fluorescence, FDSS; host cell line not named in the record; reference of the full effect not given here; activation, % (concentration not given with the values); 410,000 tested, 0.12% active; in the data active = activation above about 50%; inconclusive = about 30% to 50%; inactive = below about 30%; further: 0% is about no effect; the text of the record puts the active cut at 80%
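Cells: TRPML1-DL, 1X Tet inducer, ~16 h at 37 degrees C/5% CO2. Dye: ABD Ca8 no-wash + quencher, 45-90 min RT. Read: 10 s baseline, compound add, 110 s agonist phase; 54-4 EC80 (4uM final), 110 s antagonist phase.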
Six1-Eya2 inh – qHTS Assay for Inhibitors of the Six1/Eya2 Interaction | Homeobox protein SIX1 (Homo sapiens) + Protein phosphatase EYA2 (Homo sapiens), … | AID 651725, 2012 | activity change, % (no concentration beside the values) | AlphaScreen GST-Six1/His-Eya2 binding, biochemical; active compounds read low; control for the full effect not named in the record | 360,000 tested, 0.56% active; in the data active = activity change below about -65%; inconclusive = about -30% to -65%; inactive = above about -30%; further: on the % scale 0 is the no-effect control and ±100 the full control effect
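AlphaScreen with GST-Six1 and His-Eya2 (5X mix: 250 nM and 500 nM), glutathione donor and nickel acceptor beads; buffer 50 mM Tris pH 8.0, 300 mM NaCl, 1 mM TCEP; 1 h at 37 C in the dark.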
TRPV1 PAM – HTS Assay for Compounds that Act as Potentiators of the Vanilloid Receptor 1 | Transient receptor potential cation channel subfamily V member 1 (Homo sapiens), Q8NER1 | TRPV1-expressing cells, Fluo-8 calcium influx, capsaicin EC20 potentiation; host cell line not named in the record; control for the full effect not named in the record | potentiation, % at 8.33 µM | 320,000 tested, 0.02% active; active means potentiation above 80%; inconclusive means 30% to 80%; inactive means below 30%; further: 0% is about no effect
Target sequence (Q8NER1 whole entry, looked up): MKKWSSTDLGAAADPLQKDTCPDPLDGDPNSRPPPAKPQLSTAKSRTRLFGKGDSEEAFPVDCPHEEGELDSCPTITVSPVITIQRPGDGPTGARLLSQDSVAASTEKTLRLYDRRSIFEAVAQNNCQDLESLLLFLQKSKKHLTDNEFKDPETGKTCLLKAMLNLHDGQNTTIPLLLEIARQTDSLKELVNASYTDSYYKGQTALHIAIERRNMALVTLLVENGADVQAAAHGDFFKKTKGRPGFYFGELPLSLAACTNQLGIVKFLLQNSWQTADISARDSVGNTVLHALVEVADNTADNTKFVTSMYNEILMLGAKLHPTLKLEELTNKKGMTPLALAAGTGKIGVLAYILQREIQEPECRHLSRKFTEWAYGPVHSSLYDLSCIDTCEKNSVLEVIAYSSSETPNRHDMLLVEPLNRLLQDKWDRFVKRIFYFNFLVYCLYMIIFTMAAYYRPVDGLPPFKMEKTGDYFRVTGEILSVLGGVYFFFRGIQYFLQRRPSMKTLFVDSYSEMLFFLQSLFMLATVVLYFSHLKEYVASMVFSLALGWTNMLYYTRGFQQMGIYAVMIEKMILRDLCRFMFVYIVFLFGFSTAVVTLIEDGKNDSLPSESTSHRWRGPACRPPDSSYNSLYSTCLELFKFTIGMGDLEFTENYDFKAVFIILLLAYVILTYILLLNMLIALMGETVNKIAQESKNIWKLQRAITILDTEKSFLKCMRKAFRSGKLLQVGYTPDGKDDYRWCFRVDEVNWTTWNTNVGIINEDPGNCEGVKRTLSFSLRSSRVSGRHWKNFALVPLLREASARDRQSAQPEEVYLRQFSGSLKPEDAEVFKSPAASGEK
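Cells expressing TRPV1 were dye-loaded with Fluo-8 and read kinetically: 10 s baseline, 3 min after compound (agonist portion), then 2 min after EC20 capsaicin (allosteric enhancer portion). Calcium-bound dye fluorescence at 480/520 nm.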
TRPML1 blocker – qHTS for Inhibitors of the Human Mucolipin Transient Receptor Potential 1 (TRPML1) | Mucolipin-1 (Homo sapiens), Q9GZU1 | TRPML1-inducible cells, Ca2+ dye fluorescence, FDSS; active compounds read low; inhibition of EC80 agonist-evoked calcium signal | activity change, negative = inhibition, % (no concentration beside the values) | 390,000 tested, 0.02% active | AID 624415, 2012; in the data active means activity change below about -50%; inconclusive means about -30% to -50%; inactive means above about -30%;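 further: stimulus is agonist 54-4 at its EC80 concentration; on the % scale 0 is the no-effect control and ±100 the full control effect; compound concentration not given in the record; the text of the record puts the active cut at -80%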
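Tet-induced TRPML1-DL cells loaded with Ca8 no-wash calcium dye were read kinetically on FDSS. Compound addition was followed by EC80 agonist 54-4 (4 uM final); inhibition was read over 110 s.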
D2 PAM – Beta-Arrestin HTS for Positive Allosteric Modulators of the Human D2 Dopamine Receptor: Potentiators; DiscoveRx D2 beta-arrestin cells, luminescence, 90 min; 100% = 57 uM dopamine signal; potentiation, % (no concentration beside the values); 360,000 tested, 0.23% active; active = potentiation of 50% or more; inconclusive = 30% to 50%; inactive = 30% or less;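 further: compound concentration not given in the record; tested on top of an EC20 dose of dopamine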
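PathHunter D2 cells, attached overnight at 37 deg C, received compound in DMSO plus dopamine at EC20 (50 nM final) for 90 min at 37 deg C. Beta-arrestin recruitment was read as luminescence after 1 h with detection reagent at ambient temperature.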
An asterisk follows results filed as active; ? = inconclusive; / = no result given; & = joins results of further samples.

The line under a structure holds: CtBP-E1A blk	TRPML1 ag	Six1-Eya2 inh	TRPV1 PAM	TRPML1 blocker	D2 PAM
- CC(C)(C)NC(=O)COc1coc(CN2CCN(Cc3ccccc3)CC2)cc1=O
    -14	0.1	3	12	26	2
- CCc1ccc(-c2cc(C(=O)NN3CCOCC3)c3ccccc3n2)s1
    0	-0.5	-7	-19	-10	5
- O=C(Nc1ccc(F)c(Cl)c1)c1cc(C2CCCN(C(=O)c3cccs3)C2)on1 (centres undefined)
    -2	0.5	-5	/	/	-9
- CCOC(=O)C1(CCOc2ccccc2)CCN(Cc2ccc(NC(C)=O)cc2)CC1
    1	-0.1	1	-1	11	-17
- COc1cccc(-c2cnc(C(O)c3cccc(OC)c3)[nH]2)c1 (centres undefined)
    -10	-1.2	-10	/	/	-2
- COC(=O)C[C@H]1c2ccccc2S(=O)(=O)N1C(C)C
    -2	0.3&-0.9	6	/	3	-3
- COc1cc(C(C(=O)NC2CCCC2)N(Cc2ccco2)C(=O)c2snc(C(N)=O)c2N)cc(OC)c1OC (centres undefined)
    -14	-0.9	4	?	3	6
- O=C(NCc1ccccn1)Nc1cccc(Cl)c1
    3	0.1	0	-1	-9	-22
- COc1ccc(C2CC2/C(C)=N/OC(=O)c2ccc(F)cc2)cc1 (centres undefined)
    27	1.8	8	-23	30	1
- O=C(Nc1ccc(Cl)cn1)C1CCCN1S(=O)(=O)c1ccc(Cl)cc1 (centres undefined)
    10	0.0	8	-24	-13	-3
- O=C(NCCc1ccc(O)cc1)c1ccc(Cl)cc1
    4	0.8	-1	2	-10	-14
- Cc1ncc([N+](=O)[O-])n1Cc1ccccc1F
    6	0.2	-1	22	4	-1
- COC(=O)CSc1nc2cc3c(cc2cc1C)OCO3
    8	-0.6	6	5	25	-3
- C[C@H]1CCC[C@]2(O[C@H](CCO)C[C@H](O)[C@H]2O)O1
    4	-0.4	5	/	3	-9
- CN(CC(=O)NCC(=O)Nc1ccc(F)cc1)CC(=O)Nc1ccc(Cl)c(C(F)(F)F)c1
    24	0.7	-14	/	-1	-6
- C#CCOCCOCCOCCNc1nc(N2CCN(C(=O)[C@H]([C@@H](C)CC)n3cc(CCCN=C(N)N)nn3)CC2)nc(N2CCN(C(=O)[C@H](CCCCN)n3cc(CCC(=O)O)nn3)CC2)n1
    /	-0.5	25	28	-6	-1
- CS(=O)(=O)Nc1cccc(C(=O)CC2(O)C(=O)Nc3ccccc32)c1 (centres undefined)
    7	0.3	0	6	-4	14
- COC(=O)C1(C(=O)OC)C2C(=O)C3C(C21)C3(C(=O)OC(C)(C)C)C(=O)OC(C)(C)C (centres undefined)
    -22	-0.6	6	/	0	-8
- C=Cn1ccnc1CC(O)c1ccc(OC)cc1 (centres undefined)
    -4	0.3	1	/	-9	-19
- COc1ccc(C(=O)NCc2ccc3c(c2)OCO3)cc1S(=O)(=O)N1CCCC1
    -3	1.2	-3	-10	-17	-1
- CCOc1ccc(-n2nc3c(=O)[nH]nc(C)c3c2C)cc1
    -5	0.4	-8	-6	-6	-2
- Cc1ccc(C(=O)Nc2ccc(S(=O)(=O)N3CCN(C)CC3)cc2)cc1
    -5	-0.6	-7	-19	3	-19
- O=C1CCC(C(=O)N(c2ccccc2)C2(C(=O)NC3CCCCC3)CCCCC2)N1 (centres undefined)
    3	0.9	3	6	-3	16
- COc1ccc(CCNC(=S)Nc2cc(C)ccc2C)cc1
    1	1.5	-10	14	-6	-7
- CCCn1c(CCC(=O)O)ccc1-c1ccccc1
    -1	-0.6	-2	5	-7	1
- Cn1cc(NC(=O)Nc2ccc(C(F)(F)F)cc2)c(C(F)(F)F)n1
    6	0.8	9	-16	28	-5
- COCCCN(C(=S)Nc1ccc(OC)cc1)C(C)c1ccncc1 (centres undefined)
    -5	0.7	-1	-1	-7	-9
- Cc1[nH]c2ccccc2c1N=Nc1ccccc1F
    -27	-0.4	-17	5	-7	-1
- COc1cccc(C(=O)CN(C(=O)c2ccc(Cl)c(Cl)c2)N2C(=O)C3CCCCC3C2=O)c1 (centres undefined)
    4	0.3	7	6	-11	-6
- O=C(OCc1ccc2c(c1)OCO2)c1ccc(S(=O)(=O)N2CCCC2)cc1
    10	1.6	20	-4	-11	-13

Complete entries, looked up by structure. Values in the order: CtBP-E1A blk, TRPML1 ag, Six1-Eya2 inh, TRPV1 PAM, TRPML1 blocker, D2 PAM
`CN(CC(=O)NCC(=O)Nc1ccc(F)cc1)CC(=O)Nc1ccc(Cl)c(C(F)(F)F)c1` in the list: 24, 0.7, -14, /, -1, -6
`O=C(NCCc1ccc(O)cc1)c1ccc(Cl)cc1` in the list: 4, 0.8, -1, 2, -10, -14
`COc1cc(C(C(=O)NC2CCCC2)N(Cc2ccco2)C(=O)c2snc(C(N)=O)c2N)cc(OC)c1OC` (centres undefined) in the list: -14, -0.9, 4, ?, 3, 6

Carrying on.
The line under a structure holds: CtBP-E1A blk	TRPML1 ag	Six1-Eya2 inh	TRPV1 PAM	TRPML1 blocker	D2 PAM
- Cn1c(COc2ccccc2O)[n+](C)c2ccccc21
    /	0.4	7	10	6	-14
- Cc1cc(C)n2nc(N)nc2n1
    -10	0.5	7	/	26	-7
- CCOc1ccc(NC(=O)c2cnsn2)cc1
    -2	0.2	4	-11	-1	8
- CC(C)c1nnc(NC(=O)Cc2ccc(Br)cc2)s1
    14	0.7	5	7	-19	-4
- Cc1ccc(NC(=O)C2CC3CCC2C3)c(Br)c1 (centres undefined)
    /	/	7	?	/	-18
- NC(=O)NOCc1cccc(Cl)c1
    2	0.8	8	1	-10	-16
- C=C(C)c1ccccc1
    7	-0.7	-5	-1	-1	2
- CC1(c2ccccc2)NC(=O)N(CC(=O)NNC(=O)c2ccccc2F)C1=O (centres undefined)
    0	1.0	3	-10	18	-7
- COc1ccc(NC(=S)NC(NC(=O)c2cccc(Cl)c2)C(Cl)(Cl)Cl)c([N+](=O)[O-])c1 (centres undefined)
    -17	1.0	-25	-17	26	-6
- COCCNC(=O)CSc1nc2cc(OC)c(OC)cc2c(=O)n1Cc1ccco1
    -3	1.1	-3	4	-7	-5
- O=C1C(CO)C(CO)C(CO)C1CO (centres undefined)
    -13	-0.3	2	/	4	-8
- CC1CCCN(C2(O)C(=O)Nc3ccc([N+](=O)[O-])cc32)C1 (centres undefined)
    /	1.1	0	-19	0	-12
- O=S(=O)(c1ccc2nnn(O)c2c1)N1CCOCC1
    /	-1.1	7	/	19	-4
- COc1cccc(-c2c(C(=O)N/N=C/c3ccc(C)s3)nnn2-c2nonc2N)c1
    /	0.3	-9	10	-23	-7
- CCn1cc(CNC(=O)c2cc(COc3ccc(F)cc3Cl)on2)cn1
    ?	0.4	-30	-7	-8	0
- N#Cc1cn(CCOc2ccc(F)cc2)c2ccccc12
    24	0.4	9	21	14	-10
- CCCOC(=O)c1cccc(NC(=O)COc2ccc([N+](=O)[O-])cc2)c1
    17	2.3	3	3	14	-20
- C/C(CC(=O)Nc1cccc(Cl)c1Cl)=N\NC(=O)c1ccccc1C
    12	2.3	3	2	-25	-5
- O=C(NN(C(=O)C1CC1)c1nc2ccccc2s1)C1CC1
    -3	2.1	3	-8	-11	0
- CCN(CC)NC(=O)Nc1ccccc1
    -5	0.1	-10	14	4	-6
- O=C(O)c1cccc(NS(=O)(=O)c2ccc(C3CCCCC3)cc2)c1
    /	-0.6	-4	2	-6	-3
- Cc1cccc2cc(C#N)c(SCC(=O)NNC(=O)Cc3ccccc3)nc12
    2	-0.6	6	/	0	-13
- COc1ccc(CN(C(=O)/C=C/c2ccco2)C2CCS(=O)(=O)C2)cc1 (centres undefined)
    -17	1.5	-9	/	-11	0
- CCCN(CCC)CCNc1c(N2CCN(C(=O)OCC)CC2)c(=O)c1=O
    4	1.0	7	11	-3	-14
- O=C1Nc2cc(S(=O)(=O)N3CCCC3)ccc2N2CCCC12 (centres undefined)
    -14	-0.1	-5	-9	16	-4
- O=C(Nc1ccc(N2CCOCC2)c(Cl)c1)c1ccc(-n2cnnc2)cc1Cl
    2	-0.5	21	6	-5	-26
- O=S(=O)(Nc1cc(S(=O)(=O)N2CCOCC2)ccc1O)c1ccc2c(c1)OCCCO2
    3	-0.4	-3	-11	2	5
- CC(C)c1ccc(CSc2ccc(S(=O)(=O)N3CCOCC3)cn2)cc1
    -15	-0.2	18	-12	-15	0
- O=C(CN1CCN(c2ccccc2F)CC1)N1CCc2ccccc21
    3	-0.4	6	-1	2	-15
- O=C1NC[C@H](Cc2ccccc2)N(C[C@@H]2CCCN2C[C@H](Cc2ccccc2)N2C[C@H](Cc3ccc(O)cc3)N(CCc3ccccc3)C(=O)C2=O)C1=O
    -1	0.1	-18	/	/	/
- CCOc1cc(-c2cc(-c3ccc(C)cc3)nc(N)c2C#N)ccc1O
    -6	0.4	-15	6	-2	-19
- C/C(=N\NC(=O)c1ccc(CSc2nc(C)cc(C)n2)cc1)C1CCCCC1
    20	-0.8	-5	1	10	-4
- COc1ccc(CNC(=O)CCN2C(=O)[C@@H]3Cc4ccccc4CN3C2=O)cc1
    -4	-0.9	3	22	5	-8
- Cc1ccc([N+](=O)[O-])cc1NC(=O)Cc1cccs1
    -2	0.6	7	11	-16	-15
- COc1ccc(-n2c(SCC(N)=O)nnc2-c2ccco2)cc1
    /	/	0	-1	/	8
- CC(C)Oc1cc(F)ccc1-c1cc(C(=O)Nc2ccc(F)cc2)[nH]n1
    4	-0.6	4	/	/	-17
- CCNS(=O)(=O)c1ccc(CCC(=O)NCc2ccccn2)cc1
    -21	0.3	1	-12	-5	-1
